Screens: PubChem BioAssay, several laboratories
MT1-MMP reporter: inhibitors of MT1-MMP promoter transcription, cell-based, luciferase reporter, luminescence (AID 618); 87,000 compounds, 0.62% hits; calls from a first round at 10 µM; hits with a dose series show EC50 in µM; MT1-MMP promoter luciferase reporter cells, luminescence;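 active = over half of the reporter light lost at 10 µM or EC50 under 50 µM; inactive = the rest and hits that failed the dose series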;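 note: actives suppress MT1-MMP promoter-driven transcription so potencies describe inhibitors; HT1080 fibrosarcoma cells; overnight exposure; toxic or luciferase-blocking compounds were not removed from the actives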
WNV protease inh: WNV NS2B-NS3 proteinase inhibition; WNV NS2B-NS3 protease, fluorogenic substrate Ex360/Em465; active compounds read low; AID 577; z-score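 (tested at a level between 10 and 100 µM)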; 65,000 compounds, 0.18% hits; P06935;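 active = z-score at -3 or under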;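 note: score is relative to mean and spread of the compound wells of a plate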
Target sequence (P06935 1371-1501 limits assumed): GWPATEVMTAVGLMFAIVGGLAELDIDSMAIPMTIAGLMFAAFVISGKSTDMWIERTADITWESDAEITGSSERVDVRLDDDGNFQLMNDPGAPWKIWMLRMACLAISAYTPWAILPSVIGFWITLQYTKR
Target sequence (P06935 1502-1679 limits assumed): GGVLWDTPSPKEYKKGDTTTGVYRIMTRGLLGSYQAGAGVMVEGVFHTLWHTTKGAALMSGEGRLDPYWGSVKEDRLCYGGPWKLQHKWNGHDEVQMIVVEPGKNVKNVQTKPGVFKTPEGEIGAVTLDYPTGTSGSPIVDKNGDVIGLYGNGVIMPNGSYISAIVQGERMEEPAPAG
Hsc70 ATP site: small molecules displacing fluorescent ligand from Hsc70 – biochemical, fluorescence polarization, primary screen (AID 568); Hsc70 fluorescence polarization, probe displacement; higher % means a stronger effect; strong numbers were not always called active; one-dose displacement, % at 20 µM; IC50 in µM for titrated hits; 83,000 tested, under 10 active;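 active = displacement above 50% without optical interference and an IC50 on retest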;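 note: ATPase domain with a fluorescein-tagged ATP probe; 0% = vehicle and 100% = excess ADP; read after one hour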
* marks the source's active call; other numbers are inactive results; i = inactive; . = not tested or not shown.

SMILES	MT1-MMP reporter	WNV protease inh	Hsc70 ATP site
CC(=Nc1ccc(C)cc1)c1sc2ccccc2c1O	i	.	0.8%
CCOC(=O)C1=C(N)n2c(s/c(=C/c3ccco3)c2=O)=C(C(=O)OC)C1c1ccco1 (stereo unspecified)	i	1.7	-3.7%
Nc1nc(F)nc2c1ncn2[C@@H]1O[C@H](CO)[C@@H](O)[C@@H]1O	i	0.31	-3.8%
CC1(C)CC(=O)C(Sc2nnc(-c3ccc(NS(C)(=O)=O)cc3)n2Cc2ccco2)C(=O)C1	i	-0.51	4.7%
COC(=O)c1cccc(-n2nnnc2SCC(=O)Nc2cc(C)on2)c1	i	-1.8	-6.6%
CC(=O)NCCCCCCNC(C)=O	i	-0.11	2.0%
COc1cc(NC(=O)CSc2nccc(C)n2)c(C(=O)O)cc1OC	i	-1.7	0.5%
O=C(CCN1C(=O)c2ccccc2C1=O)NCc1ccco1	i	.	0.4%
S=C1NCCc2ccccc2C1c1ccccc1Cl (stereo unspecified)	i	.	0.2%
CCn1c(SCC(=O)NC(=O)Nc2ccc3c(c2)OCCO3)nnc1-c1cccs1	i	0.82	4.0%
Cc1ccc(SCc2nc(-c3cccnc3)no2)cc1	i	-0.12	2.0%
COc1ccc(CNC(=O)c2onc(C)c2Cl)cc1	i	-0.4	-2.9%
CCCOc1ccc2oc(=O)c3c(c2c1)CCCN3C(=O)CN1CCN(c2ncccn2)CC1	i	-0.14	-8.4%
c1ccc(C(c2ccccc2)N2CCN(c3ccc4ccccc4n3)CC2)cc1	i	.	0.7%
COC(=O)C1=C(C)N(CC(C)C)C(=O)/C1=C\c1cccs1	i	.	-1.6%
COC(=O)c1ccccc1NC(=O)CSc1nnc(CNS(=O)(=O)c2ccc(C)cc2)n1C	i	-0.17	3.1%
COc1cc2nc3c4ccccc4n(CC#N)c3nc2cc1OC	i	0.36	-13%
COc1ccc(S(=O)(=O)Cc2ccc(C(=O)N3CCc4ccccc4C3)o2)cc1	i	1.4	-0.1%
CCC(Sc1ccccn1)C(=O)Nc1nnc(C)s1 (stereo unspecified)	i	0.57	0.3%
CC(=O)Nc1cccc(-c2nnc(SCc3ccccc3C#N)n2C)c1	i	-0.88	2.1%
O=c1cc(Nc2ccc3c(c2)OCCO3)[nH]c(=O)n1C1CCCCC1	i	1.2	2.2%
O=C(O)C1C(c2ccccc2)C(C(=O)Oc2ccc(O)cc2)C1c1ccccc1 (stereo unspecified)	i	0.35	9.9%
CCN(c1ccccc1)S(=O)(=O)c1ccc2[nH]cc(C(=O)NCCOC)c(=O)c2c1	i	-0.36	-0.1%
CCOC(=O)CSc1nc2sc(C)c(C)c2c(=O)[nH]1	i	-1	-5.9%
O=C(OCC(=O)N1CCOCC1)c1ccc[nH]c1=O	i	-0.0042	1.7%

Continued (2 carried over from the part before).
SMILES	MT1-MMP reporter	WNV protease inh	Hsc70 ATP site
CCOC(=O)CSc1nc2sc(C)c(C)c2c(=O)[nH]1	i	-1	-5.9%
O=C(OCC(=O)N1CCOCC1)c1ccc[nH]c1=O	i	-0.0042	1.7%
CCOC(=O)c1cc(=O)n2nc(-c3ccccc3F)nc2s1	i	0.22	1.0%
CCCN1C(=O)c2ccc(C(=O)NCc3ccco3)cc2C1=O	i	1.7	2.1%
CCOC(=O)c1nnn(-c2nc(N3CCCC3)nc(N3CCCC3)n2)c1-c1ccccc1	i	0.54	-4.3%
CCCc1cc(=O)n2[nH]c(NCc3ccccc3F)nc2n1	i	-0.48	1.3%
O=C1CC(c2ccc(F)cc2)CC(O)=C1C=NCCN1CCNCC1 (stereo unspecified)	i	.	-11%
Cc1cc(C)n(CC(O)COc2ccc(OCC(O)Cn3nc(C)cc3C)cc2)n1 (stereo unspecified)	i	.	5.1%
CCN(CC)c1ccc2c(C)c(CN3CCOCC3)c(=O)oc2c1	i	3.3	-7.1%
CC1CCCC(C)N1C(=O)Cn1c(SCC(=O)NCc2ccc3c(c2)OCO3)nc2ccccc21 (stereo unspecified)	i	2.4	-4.4%
Cc1csc2nc(CSc3nc4ccccc4o3)c(Br)n12	i	0.83	0.2%
COc1ccccc1CNC(=O)c1cnc2sccn2c1=O	i	0.07	-0.3%
Cc1ccc(C)c(NC(=O)CSc2nnc([C@@H]3CCCN3C(=O)OC(C)(C)C)o2)c1	i	-0.22	-4.2%
CC(=O)OC(C(=O)NCc1ccco1)c1ccncc1 (stereo unspecified)	i	0.45	-1.4%
CCN1CCN(C(=O)c2ccc3c(=O)n(CCC4=CCCCC4)c(=O)[nH]c3c2)CC1	i	0.05	7.6%
CC(C)NC(=O)CCCc1cn(C)c2ccccc12	i	-0.96	1.5%
CCn1cc(C(=O)NCC2CCCO2)c(=O)c2cc(F)c(N3CCN(C)CC3)cc21 (stereo unspecified)	i	-0.13	4.8%
Cc1cccc(Nc2nc(N)nc(CN3CCN(c4ccccc4F)CC3)n2)c1	i	-0.57	-11%
Cc1ccc(S(=O)(=O)c2nc(-c3cccs3)oc2SCC(N)=O)cc1	i	-0.81	-24%
O=C(CCC1CCCC1)Nc1ccon1	i	0.37	2.6%
O=C1CC(N2CCN(Cc3ccc4c(c3)OCO4)CC2)C(=O)N1CCc1ccccc1 (stereo unspecified)	i	-0.84	-7.4%
NC(=O)CSc1nnc2n(-c3ccccc3)c(=O)c3c4c(sc3n12)CCCCC4	i	-0.85	3.6%
O=C1c2ccccc2C2NC(=O)C3(CCCCC3)N12 (stereo unspecified)	i	0.63	-11%
NC(=O)CSc1nnc(Cc2cccs2)n1C1CCCCC1	i	.	0.7%
Cc1ccsc1C(=O)OCC(=O)NCC1CCCO1 (stereo unspecified)	i	-0.36	3.4%
Clc1cccc(Cl)c1Cn1cnc2c(N3CCCCCC3)ncnc21	i	0.6	0.5%
O=C(NCc1ccco1)c1ccccc1NS(=O)(=O)c1cccs1	i	0.00074	-0.5%
SMILES	MT1-MMP reporter	WNV protease inh	Hsc70 ATP site
Cc1nc2ccc(C(=O)N3CCN(c4ccccc4)CC3)cc2s1	i	.	-1.7%
CC(=O)c1cccc(NC(=O)CN(c2ccccc2)S(C)(=O)=O)c1	i	0.08	-128%
Cn1c(C(=O)N2CCC(C(=O)N3CCOCC3)CC2)cc2sccc21	i	1	3.3%
Cc1cccc(NC(=S)NCc2cccn2C)c1	i	.	0.1%
O=C(O)c1nn(-c2ccc(Cl)cc2)ccc1=O	i	-0.83	0.9%
Cc1cccc(N(CC(=O)NC2CCCC2)C(=O)CS(=O)CC(=O)Nc2ccc3c(c2)OCO3)c1 (stereo unspecified)	i	-0.93	3.2%
COC(=O)CN1CCN(C(c2ccccc2)c2ccccc2)CC1	i	-0.12	-2.1%
CC1CCCN(C(=O)COC(=O)c2ccc[nH]c2=O)C1 (stereo unspecified)	i	.	3.6%
COc1ccc(C2c3c(oc4ccccc4c3=O)C(=O)N2c2ccc(C)cn2)cc1OC (stereo unspecified)	i	0.34	-2.8%
CC1Cc2ccccc2N1C(=O)CSc1nnc(-c2ccc(S(=O)(=O)N3CCCCC3)cc2)o1 (stereo unspecified)	i	0.94	-2.0%
O=C1C(Cl)=C(NCCc2ccccc2)C(=O)N1CCc1ccccc1	i	.	-14%
COc1ccccc1N1CCN(C(=O)c2ccncc2)CC1	i	-0.91	-6.8%
O=C(CSc1nnc(-c2ccncc2)n1Cc1ccco1)N1c2ccccc2Sc2ccc(Cl)cc21	i	.	-0.6%
COC(=O)CSc1nnc(-c2ccco2)n1Cc1ccco1	i	0.37	1.3%
Cn1c(=O)[nH]c(=O)c2c1nc(N1CCN(c3cccc(Cl)c3)CC1)n2CCCc1ccccc1	i	-0.62	4.7%
O=C(CC(=O)c1ccccc1)Nc1ccc2c(c1)OCCO2	i	-0.56	6.8%
Cc1cc(C)n(-c2nc3c(c(=O)[nH]c(=O)n3C)n2Cc2ccccc2)n1	i	0.05	0.3%
C=CCN(C#N)c1nc(OC)nc(N2CCCC2)n1	i	.	-3.8%
Cc1occc1C(=O)NN=C1C2CC3CC(C2)CC1C3	i	.	-0.6%
CCn1c(SCC(=O)N2CCCCC2)nc(O)cc1=O	i	.	-0.3%
CCN(CCNC(=O)CC1Oc2ccccc2NC1=O)c1ccccc1 (stereo unspecified)	i	0.55	-2.9%
Cc1ccc(C)c(N2CCN(C(=O)C3CCN(c4nc(C)cc(C)n4)CC3)CC2)c1	i	-0.02	1.2%
Cc1cc(C)n(-c2cc(Oc3ccccc3)ncn2)n1	i	.	-0.3%
CCOC(=O)c1ccc(CC2S/C(=C(\C#N)C(C)=O)NC2=O)cc1 (stereo unspecified)	i	-0.07	0.9%
O=C(Nc1cccc(-c2nc3ccccc3[nH]2)c1)c1ccco1	i	0.18	-1.4%

Part of the list above, with values under each structure:
Under each structure: MT1-MMP reporter	WNV protease inh	Hsc70 ATP site
- O=C1C(Cl)=C(NCCc2ccccc2)C(=O)N1CCc1ccccc1
  i	.	-14%
- COc1ccccc1N1CCN(C(=O)c2ccncc2)CC1
  i	-0.91	-6.8%
- O=C(CSc1nnc(-c2ccncc2)n1Cc1ccco1)N1c2ccccc2Sc2ccc(Cl)cc21
  i	.	-0.6%
- COC(=O)CSc1nnc(-c2ccco2)n1Cc1ccco1
  i	0.37	1.3%

Additional entries follow.
SMILES	MT1-MMP reporter	WNV protease inh	Hsc70 ATP site
CCCC12CN3CC(C)(CN(C1)C31C(=O)Nc3ccc(C)cc31)C2=O (stereo unspecified)	i	-1.1	-8.8%
CCOC(=O)N1CCN(CC(O)COc2ccccc2C(C)C)CC1 (stereo unspecified)	i	1.6	-2.6%
COc1ccccc1C(=O)NCC(=O)Nc1ccccc1	i	0.37	-0.5%
CN(c1ccc(C(=O)Nc2ccccc2C(=O)N2CCCC2)cc1)S(C)(=O)=O	i	-1.1	0.9%
CCCSc1nc2c(cnn2-c2ccc(C)c(C)c2)c(=O)[nH]1	i	1.2	-0.1%
c1ccc(-n2nnnc2SCCCSc2nc3ccccc3s2)cc1	i	0.03	4.8%
CC1(C)Cc2c(C#N)c(SCCOc3ccccc3)nc(N3CCOCC3)c2CO1	i	0.23	-5.9%
CCN(CC)S(=O)(=O)c1ccc(C)c(C)c1	i	.	-2.8%
CCOC(=O)c1[nH]c2ccc(OC)cc2c1NC(=O)N1CCOCC1	i	0.4	-1.6%
COc1cccc(C2=NOC(C(=O)NCc3ccco3)C2)c1 (stereo unspecified)	i	1	-9.7%
O=C(Nc1ccc2c(c1)OCCO2)c1cncc(Br)c1	7.1µM*	-0.15	-1.9%
Cc1cc(C)n(Cc2n[nH]c(=S)n2Cc2ccccc2)n1	i	.	1.7%
Cc1ccccc1S(=O)(=O)Cc1ccc(C(=O)N2CCN(c3cccc(C)c3C)CC2)o1	i	-0.07	4.0%
O=C(COc1ccc(F)cc1)NCC1CCCO1 (stereo unspecified)	i	-0.15	-5.5%
CCOC(=O)c1c(-c2ccccc2)nnn1-c1nc(OCC)nc(N2CCCCC2)n1	i	-0.71	-4.8%
CCOC(=O)C(=O)Nc1ccc(F)cc1	i	.	2.2%
COc1ccc2c(c1)[nH]c1c(=O)n(CCCN3CCOCC3)cnc12	i	.	-1.2%
Cc1ccc(NC(=O)c2cc(N3C(=O)C4CC=CCC4C3=O)ccc2N2CCOCC2)cc1Cl (stereo unspecified)	i	.	-3.1%
O=C(c1cc2ccccc2oc1=O)N1CCCC1	i	0.28	-1.5%
O=C(O)c1ccc(S(=O)(=O)Nc2ccc(F)c(Cl)c2)cc1	i	0.5	-1.6%
CC(OC(=O)c1cc2sccc2n1C)C(=O)NCCc1ccccc1 (stereo unspecified)	i	0.23	0.0%
CCCCn1c(NCc2ccccc2O)nc2ccccc21	i	-0.06	0.7%
CCOc1ccc(C(=O)CN2CCN(S(=O)(=O)c3ccc(F)cc3)CC2)cc1	i	0.32	-1.2%
COc1ccc(CCNC2=NCCS2)cc1	i	0.04	15%
O=C(CSc1ncn[nH]1)N(C1CCCCC1)C1CCCCC1	i	.	2.6%
SMILES	MT1-MMP reporter	WNV protease inh	Hsc70 ATP site
COC(=O)Cc1csc(Nc2c(C)n(C)n(-c3ccccc3)c2=O)n1	i	0.99	-0.3%
FC(F)(F)c1cccnc1N1CCN(c2ncnc3nc[nH]c23)CC1	i	-2.4	3.5%
CC(C)CC(=O)NC1(C(F)(F)F)C(=O)Nc2c1c(=O)[nH]c(=O)n2Cc1ccco1 (stereo unspecified)	i	-0.5	2.9%
COc1cccc(Oc2ccc(N)cn2)c1	i	0.26	4.1%
CNC(=O)N(C1=NCC(C)(C)S1)c1ccc(F)c(Cl)c1	i	1.5	2.4%
O=C(Nc1ccc(N2CCOCC2)c(Cl)c1)C1CCCCC1	i	-0.62	0.8%
CCCCN(C)CCCNC(=O)c1ccc2c(c1)NC(=O)C(N1CCOCC1)S2 (stereo unspecified)	i	-0.36	3.4%
CC(=O)Nc1ccccc1OC(=O)N1CCOCC1	i	.	-5.7%

Limited to Hsc70 ATP site, for six of the compounds above:
Compound	Hsc70 ATP site
COC(=O)Cc1csc(Nc2c(C)n(C)n(-c3ccccc3)c2=O)n1	-0.3%
CC(=O)Nc1ccccc1OC(=O)N1CCOCC1	-5.7%
O=C(Nc1ccc(N2CCOCC2)c(Cl)c1)C1CCCCC1	0.8%
CNC(=O)N(C1=NCC(C)(C)S1)c1ccc(F)c(Cl)c1	2.4%
CCCCN(C)CCCNC(=O)c1ccc2c(c1)NC(=O)C(N1CCOCC1)S2 (stereo unspecified)	3.4%
CC(C)CC(=O)NC1(C(F)(F)F)C(=O)Nc2c1c(=O)[nH]c(=O)n2Cc1ccco1 (stereo unspecified)	2.9%
